Source: PubChem
D2 agonist – activates the human D2 dopamine receptor. P14416. DiscoveRx PathHunter D2 beta-arrestin, luminescence, 90 min; 100% = 57 uM dopamine signal. activation, % (no concentration beside the values). hit rate 0.084% among 360,000. AID 624465; in the data active = activation above about 40%; inconclusive = about 15% to 40%; inactive = below about 15%; note: compound concentration not given in the record; the text of the record calls up to 30% inactive
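Agonist mode: compounds alone added to overnight-plated D2 PathHunter cells for 90 min at 37 C, with 57 uM final dopamine (EC100) defining full response. Beta-arrestin recruitment detected by chemiluminescent reagent, read after 1 h at ambient temperature.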
CtBP-E1A blk – blocks the CtBP interaction with E1A; hit rate 0.49% among 340,000; AlphaScreen GST-E1A/His-CtBP binding, 1536-well; hits give low values; control for the full effect not named in the record; activity change, % (concentration not given with the values); AID 651724; in the data active means activity change below about -65%; inconclusive means about -30% to -65%; inactive means above about -30%; note: % is set by controls: 0 for no effect and ±100 for the full control effect
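Protein mix (5X: 125 nM each GST-E1A, His-CtBP) was incubated with pinned compound 2 h at 37 deg C in dark, in 50 mM Tris pH 8.0 buffer with 300 mM NaCl. Glutathione donor and nickel acceptor beads followed; AlphaScreen signal read after 1 h.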
Six1-Eya2 inh – inhibitors of human Six1/Eya2 interaction; Q15475+O00167; AlphaScreen GST-Six1/His-Eya2 binding, biochemical; hits give low values; control for the full effect not named in the record; activity change, % (concentration not given with the values); hit rate 0.56% among 360,000; AID 651725; in the data active = activity change below about -65%; inconclusive = about -30% to -65%; inactive = above about -30%; note: % is set by controls: 0 for no effect and ±100 for the full control effect
Target sequence (O00167 whole entry, looked up): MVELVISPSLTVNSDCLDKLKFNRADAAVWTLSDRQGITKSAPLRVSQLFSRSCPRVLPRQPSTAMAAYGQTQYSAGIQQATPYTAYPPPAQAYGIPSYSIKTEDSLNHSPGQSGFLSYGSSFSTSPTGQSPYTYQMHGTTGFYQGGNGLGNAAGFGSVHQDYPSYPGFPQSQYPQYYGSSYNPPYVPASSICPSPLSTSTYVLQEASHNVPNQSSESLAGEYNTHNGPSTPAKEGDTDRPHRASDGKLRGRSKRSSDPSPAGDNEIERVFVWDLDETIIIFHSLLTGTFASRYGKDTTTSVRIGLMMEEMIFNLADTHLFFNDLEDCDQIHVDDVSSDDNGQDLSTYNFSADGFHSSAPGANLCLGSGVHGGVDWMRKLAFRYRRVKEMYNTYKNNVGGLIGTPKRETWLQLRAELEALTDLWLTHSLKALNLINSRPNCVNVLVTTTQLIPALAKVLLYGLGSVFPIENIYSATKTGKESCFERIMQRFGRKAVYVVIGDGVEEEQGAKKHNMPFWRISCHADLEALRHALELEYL
Target sequence (Q15475 whole entry, looked up): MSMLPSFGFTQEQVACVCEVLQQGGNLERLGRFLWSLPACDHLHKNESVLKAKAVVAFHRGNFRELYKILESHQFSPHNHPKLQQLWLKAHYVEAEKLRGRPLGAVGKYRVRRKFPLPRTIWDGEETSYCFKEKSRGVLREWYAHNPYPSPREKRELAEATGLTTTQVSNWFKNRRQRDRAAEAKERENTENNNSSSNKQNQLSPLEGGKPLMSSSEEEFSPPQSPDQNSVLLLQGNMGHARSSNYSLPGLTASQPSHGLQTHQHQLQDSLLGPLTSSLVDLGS
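AlphaScreen luminescence read after one hour at 37 °C in darkness. Pin-transferred compounds met GST-Six1 and His-Eya2 protein (5X stock 250 nM/500 nM) plus glutathione donor and Ni-chelate acceptor beads (5X, 50 ug/mL).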
PINK1 modulator – PINK1 expression modulation | PINK1 immunofluorescence, high-content cytometry, 24 h | Potency, µM (doses to about 76.6 µM), without a hit: top-dose activation (PINK1 increase), usual class: activators | hit rate 0.2% among 410,000; active = well fitted activation curve with a large enough effect; inconclusive = small, poorly fitted or top-dose-only effect; inactive = flat fitted curve, though single readings scatter; cell line not stated here;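 note: potency is the fitted concentration of half-maximal effect; % of control where 0% means no effect; nearly all actives have a fitted effect of over 65% in size; a mitochondrial uncoupler was the plate control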
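Fluorescence from anti-PINK1 antibody, together with nuclear and cell stains, was scanned on a laser-scanning cytometer. Before staining, stable-line cells were incubated 24 hours with compounds at 5 concentrations; primary antibody 12 h at 10 degrees C.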
TRPML1 ag – activates the human TRPML1 channel | TRPML1-expressing cells, Ca2+ dye fluorescence, FDSS; host cell line not named in the record; reference of the full effect not given here | activation, % (concentration not given with the values) | hit rate 0.12% among 410,000; in the data active = activation above about 50%; inconclusive = about 30% to 50%; inactive = below about 30%; note: 0% is about no effect; the text of the record puts the active cut at 80%
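In this qHTS format, compounds were pin-transferred onto Ca8-dye-loaded TRPML1-DL cells induced with Tet overnight, and intracellular Ca2+ fluorescence was recorded kinetically for 110 s after a 10 s baseline. A subsequent 4uM final 54-4 (EC80) addition followed by a second 110 s read served as the antagonist phase.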
TRPML1 blocker – blocks the human TRPML1 channel. hit rate 0.02% among 390,000. TRPML1-inducible cells, Ca2+ dye fluorescence, FDSS; hits give low values; inhibition of EC80 agonist-evoked calcium signal. activity change, negative = inhibition, % (no concentration beside the values); in the data active means activity change below about -50%; inconclusive means about -30% to -50%; inactive means above about -30%;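 note: stimulus is agonist 54-4 at its EC80 concentration; % is set by controls: 0 for no effect and ±100 for the full control effect; compound concentration not given in the record; the text of the record puts the active cut at -80%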
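Calcium fluorescence in TRPML1-DL cells induced overnight with Tet: a 110 s read after compound pin addition, then a 110 s antagonist read after challenge with 54-4 at 4 uM final (EC80).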
Starred values were filed as active, the others as inactive; ? = inconclusive; · = no result given; & = joins results of further samples; [ ] = another dose, or the depositor's remark.

structure | D2 agonist | CtBP-E1A blk | Six1-Eya2 inh | PINK1 modulator | TRPML1 ag | TRPML1 blocker
Cc1ccccc1NC(=O)c1sc2nc3c(c(-c4ccco4)c2c1N)CCCC3 | -2.8 | 28 | 28 | · | 1.4 | 18
COc1ccc(-n2c(=O)c3ccccc3n(CC(=O)NCCc3ccccc3)c2=O)c(OC)c1 | · | · | · | 0.6% | -0.8 | 3
O=C(CN1CCN(S(=O)(=O)c2ccccc2Cl)CC1)NCC1(N2CCOCC2)CCCCC1 | -4.8 | -4 | 6 | 5.1% | 0.0 | -8
Cc1cc(-n2cccn2)ccc1CN1CCN(C2CCCC2)C(CCO)C1 (centres undefined) | 0.0 | 3 | -5 | -0.1% | -0.7 | -4
Cc1ccc(Cl)cc1NC(=O)C1C2CCC(O2)C1C(=O)O (centres undefined) | -4.7 | 6 | -7 | 3.0% | -0.4 | 3
Cc1noc(C)c1NC(=O)Nc1cccc2c1O[C@H](CN(C)C(=O)NC1CCCCC1)[C@@H](C)CN([C@H](C)CO)C2=O | -0.3 | 5 | 7 | -0.6% | -0.8 | 2
NCC(=O)NCC(=O)NC1(C(=O)O)CCCC1 | -0.1 | -1 | -1 | 3.6% | 0.3 | 24
Cc1noc2ncnc(Oc3ccc(F)cc3)c12 | -0.5 | 2 | 14 | 1.6% | 0.4 | 14
Cc1ccc(N=Nc2c(O)n(CN3CCOCC3)c3ccccc23)cc1 | -5.4 | -2 | 3 | 13% | 2.5 | -10
CCOC(=O)NC(=O)COC(=O)c1ccc(Sc2ncn[nH]2)c([N+](=O)[O-])c1 | -2.4 | -21 | ? | 2.9% | 0.8 | -11
O=C(COc1ccc(C(=O)NCc2cccnc2)cc1)Nc1cccc(C(F)(F)F)c1 | 2.7 | -2 | -7 | 0.0% | 0.9 | -7
N#Cc1ccccc1S(=O)(=O)N1CCN(C(=O)c2cc3c(s2)CCC3)CC1 | 2.8 | 0 | -2 | 0.8% | 0.3 | -3
N#C/C(=C\c1ccc(O)cc1)C(=O)NCC1CCCO1 (centres undefined) | · | · | · | -0.2% | 1.9 | 27
CCN(C[C@H]1N[C@@](C)(C(=O)OC)[C@H]2C(=O)N(C)C(=O)[C@@H]12)S(=O)(=O)c1ccc(-c2ccccc2)cc1 | 2.4 | 0 | -2 | 2.5% | -0.7 | -26
Cc1ccccc1-n1c(/C=C/c2c(C)n(C)c3ccccc23)nc2ccccc2c1=O | · | · | · | 2.7% | -0.2 | 15
COc1ccc(CCNC(=O)CCCCCNc2nc(=S)[nH]c3ccccc23)cc1OC | -5.3 | -19 | ? | 7.3% | -0.7 | 11
Cc1ccc(Sc2cnc(N)nc2C)cc1 | -5.9 | 1 | 31 | -1.4% | 2.2 | -7
COc1ccccc1N1CCN(S(=O)(=O)c2c(C)ccc3nsnc23)CC1 | -0.8 | -29 | -26 | 4.9%[38.3 µM] | 1.3 | 2
C/C(CC(=O)Nc1cccc(Cl)c1Cl)=N\NC(=O)C(=O)NC1CCCCC1 | -2.4 | 4 | 2 | 1.0% | 4.7 | 13
CN(C)S(=O)(=O)Oc1cccc(C(=O)Nc2ccc(Cl)cc2)c1 | -2.7 | 3 | 1 | -0.4% | 0.3 | 6
COc1cc(C=C2C(=O)OC(C)(C)OC2=O)ccc1OCC(=O)Nc1ccccc1 | 0.0 | · | 0 | -1.8% | 0.3 | 27
CCOC(=O)/C(=C/c1c[nH]c2ccccc12)NC(C)=O | -2.1 | -1 | 1 | -1.4% | -0.9 | 5
Cc1c(C(=O)NCc2ccc3c(c2)OCO3)cccc1[N+](=O)[O-] | -2.9 | 1 | -9 | -0.8% | -0.4 | -1
Cc1nc(S/C(=C\c2ccc(-c3ccc(C(=O)O)c(Cl)c3)o2)C(=O)O)n[nH]1 | -16 | · | ? | 1.0% | 1.9 | -1
Cc1cc2c3c([nH]c2cc1S(=O)(=O)N1CCC2(CC1)OCCO2)CCCC3=O | 6.4 | -11 | -4 | 0.4% | 0.6 | -6
CCOC(=O)[C@H]1[C@H]2COc3ccc(Cl)cc3[C@@H]2N2C(=O)CN(Cc3ccc(F)cc3)C(=O)[C@@]12C | -4.0 | -5 | -1 | 1.0% | 0.7 | 39
CCN(CC)c1ccc(/C=N/n2c(-c3ccccc3Br)n[nH]c2=S)cc1 | -5.9 | 0 | -13 | 23% | 19 | -7
CNC(=O)CCSSCCC(=O)NC | -7.5 | 10 | 0 | -0.1% | 1.2 | 4
COc1ccc(C)cc1-n1nnnc1SCC(=O)NC(=O)NCc1ccco1 | 0.9 | 12 | -8 | -1.4%[38.3 µM] | 1.0 | 4
CC1=C(C(=O)OCc2ccccc2)C(c2ccccc2Cl)NC(=O)N1C (centres undefined) | 1.8 | -7 | 9 | -0.5% | -0.8 | -6
COc1ccc(OC)c(-c2cc(C(=O)Nc3c(C)nn(Cc4ccccc4C)c3C)no2)c1 | 2.2 | -14 | -18 | -1.3%[38.3 µM] | 1.0 | -6
O=C(COC(=O)CC(c1ccccc1)c1ccccc1)Nc1cccc(F)c1 | -0.8 | -17 | 8 | 0.2% | 4.4 | -28
O=C(CN1CCCCCC1)NCc1ccccc1 | -3.1 | 14 | 3 | -0.4% | 0.1 | -11
O=C(NNc1ncccc1Cl)c1c(Cl)cccc1Cl | -2.7 | -10 | 2 | 0.8% | -1.2 | 25
COc1ccc2c(/C=N/NS(=O)(=O)c3ccc(C)cc3)c[nH]c2c1 | 3.3 | -13 | -1 | 4.6% | 2.0 | 18
Nc1ccc(CCc2nc3ccccc3o2)cc1 | -1.4 | -27 | -8 | 11%[38.3 µM] | 0.1 | 0
CCOc1ccc(NC(=O)CN(C)C(=O)c2cc(C3CC3)nn2-c2ccccc2)cc1OCC | 1.3 | -1 | -8 | -0.9% | 0.8 | 16
CC(C)(C)c1cc(C(=O)N/N=C/c2ccccc2O)n(-c2ccccc2)n1 | -0.3 | -2 | -2 | 0.3% | 1.6 | -11
COc1ccc(NC(C)=[N+](C)CCNS(=O)(=O)c2ccc(Cl)cc2)cc1 | -2.1 | 9 | 14 | -1.6% | 0.4 | 39
COc1ccc2nc(NC(=O)C3CC(=O)N(c4ccccc4)C3)sc2c1 (centres undefined) | -1.2 | -4 | -14 | 0.1% | 0.0 | -4
COc1ccc2c(c1OC)C(=O)N(c1cccc(/C=C/C(=O)O)c1)C2 | 1.5 | -13 | -5 | 0.2% | 1.6 | -5
COc1cccc(C(=O)Nc2ccc3oc(-c4ccc5ccccc5c4)nc3c2)c1 | · | · | · | -1.0% | 2.4 | -7
COc1ccc(C2OCC3(CO2)SC(=O)NC3=O)cc1 (centres undefined) | -2.2 | 2 | 17 | 2.3% | -0.2 | 9
CCOc1cc(NC(=S)NCC2CCCO2)c(OCC)cc1NC(=O)CC(C)C (centres undefined) | 0.6 | 4 | 8 | 1.7% | -1.5 | -11
CC(C)CCNC(=O)c1ccc(Cn2c(=O)c3cccn3c3cccnc32)cc1 | · | · | · | 2.7% | 0.8 | 1
Cc1ccccc1OC1(C)CCN(Cc2ccc3ccccc3c2)C1 (centres undefined) | ? | 4 | 1 | 26% | -0.7 | ·
O=C(Cn1cc(C(=O)C(F)(F)F)c2ccccc21)Nc1ccccc1F | -4.0 | 0 | 4 | 5.6% | 1.2 | -26
COc1cc(C(=O)Nc2nc3ccc(S(=O)(=O)N4CCOCC4)cc3s2)cc(OC)c1OC | -3.3 | -3 | -8 | 8.9% | -0.4 | -2
CCOC(=O)CC1(NC(=O)c2cc(COc3cccc(OC)c3)on2)CCCCC1 | 1.0 | 30 | 11 | 0.9% | -1.0 | 15
CCN(c1ccccc1)S(=O)(=O)c1cnc[nH]1 | -2.5 | -1 | 0 | 0.3% | 1.1 | -6

Continued:
structure | D2 agonist | CtBP-E1A blk | Six1-Eya2 inh | PINK1 modulator | TRPML1 ag | TRPML1 blocker
O=C(CSc1n[nH]c(=O)n1Cc1ccco1)N1CCOCC1 | -5.6 | 4 | 0 | -0.3% | 0.6 | 1
Cc1cccc(NC(=O)c2cc3c([nH]c4ccccc43)c(C)n2)c1C | 0.0 | 1 | -3 | 4.5% | 0.6 | 7
CCOc1ccc(C(=O)NNC2CC(=O)N(Cc3ccc(Cl)cc3)C2=O)cc1OC (centres undefined) | -5.1 | -19 | -21 | 0.3% | -0.8 | 9
CCN1CCSc2ccc(C(=O)NCc3cccc(F)c3)cc21 | -6.0 | 3 | -1 | -0.4%&2.1% | 1.2&1.0 | 2&-14
COc1ccc(CNS(=O)(=O)CCNCc2ccco2)cc1 | -5.1 | 0 | -3 | -0.2% | -0.5 | 9
Cc1cc(C(=O)NNC(=O)C(C)NS(=O)(=O)c2ccccc2F)c(C)o1 (centres undefined) | -8.6 | 0 | 3 | -1.9% | 0.1 | 23
N#CCSc1nc2cc(C(=O)N3CCCC3)ccc2c(=O)n1Cc1ccccc1 | -2.6 | 0 | 1 | -0.2% | -0.3 | 6
CCOCCCn1c(SCC(=O)/C(C#N)=C(\C)N)nc2ccccc2c1=O | -7.6 | 1 | -2 | 0.7% | -1.7 | -6
CC1=NCCN1S(=O)(=O)c1ccccc1[N+](=O)[O-] | 2.4 | · | -93* | -0.4% | -0.3 | -8
Cc1ccc(S(=O)(=O)NN=C2CCC(C(C)(C)C)CC2)cc1[N+](=O)[O-] (centres undefined) | -0.7 | 2 | 5 | 1.5% | 0.5 | 15
COc1ccc2ccc(OC)c(/C=N/n3cnnc3)c2c1 | 6.6 | · | -15 | -1.0% | -0.7 | 9
Cc1ccc2c(c1)C(=C(C#N)C#N)C(=O)N2CCN1CCOCC1 | -0.8 | -4 | -7 | -0.9% | 3.0 | 11
Cc1c(CN2CCCC(C)C2)c(O)n(CCO)c(=O)c1C#N (centres undefined) | 5.9 | 4 | -4 | 0.4% | 0.1 | 35
COc1ccccc1/C=C1\S/C(=N/NC(=O)c2cccc(Br)c2)NC1=O | 13 | -1 | -8 | -0.1% | 0.0 | 27
COC(=O)C(C)n1cnc2c(nnn2-c2ccccc2)c1=O (centres undefined) | 3.1 | -2 | -2 | 1.3% | -0.4 | -4
c1ccc(-n2ncc3c(NCCN4CCCCC4)ncnc32)cc1 | -3.3 | 6 | -1 | -0.4% | 0.0 | -6
Cc1ccccc1CSCCNC(=O)CN(c1ccccc1)S(=O)(=O)N(C)C | · | · | · | -1.3% | 1.5 | 14
COc1ccc(NC(=O)CSc2nnc(NC(C)=O)s2)c([N+](=O)[O-])c1 | 3.2 | 6 | 8 | 1.9% | -0.3 | -11
COc1ccc2c(c1OC)C(=O)N(c1ccccn1)C2 | 0.3 | -1 | -3 | 0.5% | -0.7 | -5
COc1cccc(C2c3c(-c4ccccc4O)n[nH]c3C(=O)N2CCc2ccc(OC)c(OC)c2)c1 (centres undefined) | · | · | · | -0.2% | 2.1 | 0
O=C(O)C(NS(=O)(=O)c1ccccc1)C(O)c1ccccc1 (centres undefined) | -0.5 | 3 | 5 | -1.7% | 0.6 | 13
CCCc1nc2sc3c(c2c(=O)n1N)CCC3 | -2.6 | 12 | 7 | -1.5% | -1.9 | -9
CC(Sc1ncccn1)C(=O)NC1CCCC1 (centres undefined) | -4.7 | 6 | -2 | 0.8% | 0.0 | -3
